StopGo reporter: High Throughput Screening for Foot and Mouth Disease Virus Antivirals; hit rate 1.2% among 410,000; Potency, µM (doses to about 57.9 µM), inactives show at the highest dose signal change, negative = less light; human cells with a luciferase reporter of 2A StopGo recoding; control for the full effect not named in the record; active = well fitted falling curve with a large enough effect; inconclusive = small, poorly fitted or top-dose-only effect; inactive = no such curve, though single readings can be large or run the other way; tested in HEK293T cells; also: % is scaled to controls: 0 for no effect and ±100 for the full control effect; nearly all actives have a fitted effect of over 45% in size; luciferase light after 4 h
MARV entry inh: qHTS for inhibitors of binding or entry into cells for Marburg Virus; Marburg virus pseudotyped entry inhibition, cell reporter; control for the full effect not named in the record; about a third of the inactives were read at about 46 µM; hit rate 1.8% among 300,000; Potency, µM (doses to about 37.8 µM), inactives show at the top dose activity change, negative = inhibition, actives largely listed as inhibitors; AID 540276, 2011; active = well fitted inhibition curve with a large enough effect; inconclusive = small, poorly fitted or top-dose-only effect, or effect the other way; inactive = flat fitted curve, though single readings scatter; tested in HEK293 cells; about a fifth of its hits are not listed in these tables; also: % is scaled to controls: 0 for no effect and ±100 for the full control effect; luciferase read-out
SARS PLpro yeast: qHTS of Yeast-based Assay for SARS-CoV PLP; S. cerevisiae expressing SARS-CoV PLpro, growth rescue; control for the full effect not named in the record; Potency, µM (titrated, usually from 32.9 µM), for inactives: at the highest dose activity, positive = growth rescue; hit rate 0.19% among 330,000; also: 0% is about no effect; nearly all actives have a fitted effect of over 55% in size; growth read by luminescence after 48 h
RE007 growth inh: qHTS Assay for Inhibitors of the HIV-1 protein Vpr | Potency, µM (top dose mostly 92.2 µM), without a hit: at the top dose activity change, negative = less growth | S. pombe RE007 Vpr strain, BacTiter-Glo ATP luminescence, 24 h; control for the full effect not named in the record | hit rate 0.21% among 360,000; active = well fitted falling curve with a large enough effect; inconclusive = small, poorly fitted or top-dose-only effect; inactive = no such curve, though single readings can be large or run the other way;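 also: % is scaled to controls: 0 for no effect and ±100 for the full control effect; nearly all actives have a fitted effect of over 50% in size; the assay follows cell death caused by Vpr and the record does not say whether a fall means rescue or toxicity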
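Fission yeast strain RE007, carrying one chromosomally integrated HIV-1 vpr copy, was seeded at OD 0.01 in PMG+AL medium with 23 nL pinned compound. After 24 h at 30 °C and 99% humidity, viability was read by BacTiter-Glo luminescence.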
NS1 inh: qHTS Assay for Inhibitors of Influenza NS1 Protein Function; Potency, µM (series often up to 46.1 µM), for the others: top-dose activity, positive = more growth; hit rate 0.4% among 270,000; AID 2326, 2010; S. cerevisiae slowed by influenza A NS1, growth recovery by OD600; also: actives are rising curves; nearly all actives have a fitted effect of over 50% in size
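S. cerevisiae expressing influenza A NS1, grown in glucose, washed, then diluted 1:100 into pH 6.0 -URA galactose medium with 23 nl compound. Growth recovery read as OD600; NS1-free strain serves as control.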
Cruzain inh Det: qHTS Assay for Promiscuous and Specific Inhibitors of Cruzain (with detergent); Cruzipain (Trypanosoma cruzi), P25779; purified cruzain, Z-FR-AMC fluorescence, 0.01% Triton; Potency, µM, for inactives: max response, negative = inhibition, most hits filed as inhibitors; hit rate 0.43% among 200,000; active = well fitted curve in the direction sought with a large enough effect; inconclusive = small, poorly fitted or top-dose-only effect, or another doubt; inactive = no such curve, though single readings can be large; an effect the other way counts as inactive or inconclusive;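 also: plate controls were neutral wells for no effect and buffer without enzyme for full effect; nearly all actives have a fitted effect of over 40% in size; top concentration of the series not given in the record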
Target sequence (P25779 123-467 limits assumed): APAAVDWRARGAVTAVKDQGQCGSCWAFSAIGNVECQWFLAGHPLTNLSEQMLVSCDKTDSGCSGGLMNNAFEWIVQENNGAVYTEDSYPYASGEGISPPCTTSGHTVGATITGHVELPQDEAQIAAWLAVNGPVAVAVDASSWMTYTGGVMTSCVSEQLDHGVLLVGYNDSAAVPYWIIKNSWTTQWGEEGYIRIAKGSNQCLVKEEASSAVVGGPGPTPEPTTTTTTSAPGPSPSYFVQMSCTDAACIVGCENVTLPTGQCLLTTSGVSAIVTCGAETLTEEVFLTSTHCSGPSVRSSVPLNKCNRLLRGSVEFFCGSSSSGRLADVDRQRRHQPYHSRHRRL
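Purified cruzain (1.5 nM final) was preincubated with compounds for 15 min at room temperature in 100 mM sodium acetate pH 5.5, 5 mM DTT, 0.01% Triton X-100. Reaction started with 2 uM Z-FR-AMC; AMC fluorescence change over 60 s gave activity.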
LASV entry inh: qHTS for Inhibitors of binding or entry into cells for Lassa Virus. Potency, µM (doses to about 37.9 µM), for inactives: top-dose activity change, negative = inhibition, most hits filed as inhibitors. AID 540256, 2011. Lassa virus pseudotype entry inhibition, cell reporter; control for the full effect not named in the record. hit rate 1.2% among 300,000; active means well fitted inhibition curve with a large enough effect; inconclusive means small, poorly fitted or top-dose-only effect, or effect the other way; inactive means flat fitted curve, though single readings scatter; tested in HEK293 cells; also: % is scaled to controls: 0 for no effect and ±100 for the full control effect; nearly all actives have a fitted effect of over 50% in size; luciferase read-out
Cruzain noTriton: qHTS Assay for Promiscuous and Specific Inhibitors of Cruzain (without detergent); Cruzipain (Trypanosoma cruzi), P25779; purified cruzain, Z-FR-AMC fluorescence, no detergent; Potency, µM, inactives show max response, negative = inhibition, actives largely listed as inhibitors; hit rate 2.3% among 200,000; AID 1476, 2009; active = well fitted curve in the direction sought with a large enough effect; inconclusive = small, poorly fitted or top-dose-only effect, or another doubt; inactive = no such curve, though single readings can be large; an effect the other way counts as inactive or inconclusive;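 also: plate controls were enzyme without inhibitor for no effect and buffer without enzyme for full effect; nearly all actives have a fitted effect of over 40% in size; top concentration of the series not given in the record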
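Detergent-free condition (0.00005% Triton X-100) in acetate buffer pH 5.5 with DTT. 1.5 nM enzyme and compound were pre-mixed 15 min, then 2 uM Z-FR-AMC substrate added; reaction progress from fluorescence change between first and third reads (60 s).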
* hit, by the source's call; ? = inconclusive; . = not tested or not shown; & = joins results of further samples; [ ] = remark or other dose. Unless noted, calls follow the shape of the dose curve; as a rule, active means well fitted rising curve with a large enough effect; inconclusive means small, poorly fitted or top-dose-only effect; inactive means no such curve, though single readings can be large or run the other way. Potency is read from the fitted curve at half-maximal effect. The order is random. Share with any hit: about 4.5%.

SMILES | StopGo reporter | MARV entry inh | SARS PLpro yeast | RE007 growth inh | NS1 inh | Cruzain inh Det | LASV entry inh | Cruzain noTriton
CCC1(c2ccccc2)NC(=O)N(CC(=O)NCc2ccncc2)C1=O (centres undefined) | -12% | -5%[46.1 µM] | 1% | -3% | -4% | . | 0% | .
COc1ccc(/C=C2\N=C(c3ccccc3)N(c3ccc(C(=O)O)cc3)C2=O)cc1OC | -2% | ? | 0% | 9% | 14% | . | -6% | .
CN(CC(=O)NC1CCCCCC1)S(=O)(=O)c1ccccc1 | 29% | 29% | 0% | 16% | 2% | -0.7% | ? | 0%
CN(C)c1ccc(/C=C/C=C2/SC(=S)N(c3ccccc3)C2=O)cc1 | ? | -3% | 1% | -19% | . | -2.9% | -1% | 7.9µM*
COCCCN1C(=O)C(=O)/C(=C(/O)c2ccc(OC(C)C)cc2)C1c1ccc(O)c(OC)c1 (centres undefined) | -5% | 1% | -3% | -5% | 12% | 2.3% | 14% | -17%
Cc1cccc(NC(=O)CN2C(=O)NC(C)(c3ccc4ccccc4c3)C2=O)n1 (centres undefined) | ? | -12% | -1% | -1% | . | . | 11% | .
CCOC(=O)c1c(C)[nH]c(C(=O)OC(C)C(=O)Nc2ccccc2OC)c1C (centres undefined) | ? | -19% | -2% | -13% | 9% | . | ? | .
O=C1CC(c2ccccc2)n2nc(N3C(=O)c4ccccc4C3=O)nc2N1 (centres undefined) | -17% | 3% | -1% | -4% | -4% | 0.8% | 7% | -1%
CCCN(CCC)C(=O)CSc1nc2ccccc2c(=O)n1Cc1ccco1 | -29% | . | . | . | . | -0.8% | -9%[46.1 µM] | -6%
CC(C)Cn1c(CCC(=O)O)ccc1-c1cccs1 | -6% | 1%&1% | 8% | -10% | 2%&-49% | -2.8% | -1% | -6%
CC(C)CNC(=S)NC(=O)c1ccc(F)cc1 | 39%[activator] | ? | ? | -29% | -5% | -2.5% | 7% | 6%
CCc1cc2c(cc3c(=O)n(CC(=O)NC4CCC(C)CC4)nc(CC)n32)s1 (centres undefined) | 38%[activator] | ? | . | . | . | 5.1% | . | 6%
Oc1c(C=C2N=c3ccccc3=N2)sc(=S)n1C1CCCC1 | -1% | -27% | -6% | . | 13% | -4.5% | 16% | 20µM*
CCNC(=S)NNC(=O)c1csc(C)c1 | 5% | 11% | 16% | 1% | 16% | 1.5% | 9% | -6%
COc1ccccc1N1CCN(CC(O)COc2c(OC)cccc2OC)CC1 (centres undefined) | -1% | -14% | 11% | 4% | -13% | 10% | -2% | 7%
CCCc1nc2sc3ccccc3c(=O)c2c(=O)n1Cc1ccco1 | -14% | 15% | 3% | -5% | -31% | -14% | -12% | ?
Cc1c(C(=O)NNC(=S)NCc2ccc(Cl)cc2)oc2ccccc12 | -20% | 1% | 3% | -10% | 6% | . | 19% | .
COc1ccc(C2NC(=O)C(C#N)=C(S)N2c2cccc(C)c2)cc1OC (centres undefined) | -7% | -20%[14.2 µM] | -1% | 23% | -8% | . | -17% | .
COc1ccc(CCN2C(=O)NC(NC(C)=O)(C(F)(F)F)C2=O)cc1OC (centres undefined) | -13% | -3% | 13% | -15% | 6% | 2.2% | 0% | 10%
CC(=O)c1ccc(S(=O)(=O)NCCCC(=O)NCCc2ccccn2)cc1 | 5% | 9% | -2% | 6% | 1% | 7.2% | -1% | -2%
CN(Cc1ccccc1)c1ncnc2c1nnn2C | -8% | . | . | . | . | -0.5% | 7%[46.1 µM] | 5%
COc1ccc2nc(C)cc(SCC(NC(C)=O)C(=O)OC(C)C)c2c1 (centres undefined) | -16% | . | 0% | -1% | -2% | . | . | .
COc1ccc(C2C(C)C(=O)C(C)C(c3ccc(OC)cc3)N2N=O)cc1 (centres undefined) | 0% | -2% | . | 2% | . | . | -13% | .
COc1ccc(S(=O)(=O)N2CCC(c3ccncc3)CC2)cc1OC | 3% | . | . | . | . | 2.7% | 3%[46.1 µM] | -10%
Cc1cccc(S(=O)(=O)c2c(C)cc(C)nc2Cl)c1 | 12% | ? | -4% | 4% | . | . | 5% | .

Structural class: those above containing four or more nitrogen atoms (5)
SMILES | StopGo reporter | MARV entry inh | SARS PLpro yeast | RE007 growth inh | NS1 inh | Cruzain inh Det | LASV entry inh | Cruzain noTriton
CCC1(c2ccccc2)NC(=O)N(CC(=O)NCc2ccncc2)C1=O (centres undefined) | -12% | -5%[46.1 µM] | 1% | -3% | -4% | . | 0% | .
Cc1cccc(NC(=O)CN2C(=O)NC(C)(c3ccc4ccccc4c3)C2=O)n1 (centres undefined) | ? | -12% | -1% | -1% | . | . | 11% | .
O=C1CC(c2ccccc2)n2nc(N3C(=O)c4ccccc4C3=O)nc2N1 (centres undefined) | -17% | 3% | -1% | -4% | -4% | 0.8% | 7% | -1%
CCc1cc2c(cc3c(=O)n(CC(=O)NC4CCC(C)CC4)nc(CC)n32)s1 (centres undefined) | 38%[activator] | ? | . | . | . | 5.1% | . | 6%
CN(Cc1ccccc1)c1ncnc2c1nnn2C | -8% | . | . | . | . | -0.5% | 7%[46.1 µM] | 5%

(listing goes on)
SMILES | StopGo reporter | MARV entry inh | SARS PLpro yeast | RE007 growth inh | NS1 inh | Cruzain inh Det | LASV entry inh | Cruzain noTriton
CC(C)COc1ccc(C(=O)N2CCC(c3nc4ccccc4s3)CC2)cc1 | -1% | 20%[46.1 µM] | . | . | . | -12% | . | -6%
COc1ccc(Cl)cc1NS(=O)(=O)c1cccc(C(=O)NCCCN2CCCC2=O)c1 | 36%[activator] | 16% | -6% | -4% | -6% | . | -6% | .
CCNC(=O)c1c(NC(=O)C2COc3ccccc3O2)sc2c1CCCC2 (centres undefined) | -23% | 14%[46.1 µM] | 5% | 0% | 6% | 10% | -22% | ?
NCCCC(=O)OC1N=C(c2ccccc2Cl)c2cc(Br)ccc2NC1=O (centres undefined) | -23% | ? | 0% | -7% | 0% | . | 17% | .
Cc1ccc(Cn2ncc3c(N4CCN(C5CCCC5)CC4)ncnc32)cc1 | ? | ? | -2% | -4% | 2% | . | -21%[46.1 µM] | .
Cc1nc(Oc2ccccc2)c2ccccc2n1 | ? | 7% | 17% | -13% | -3% | -4.3% | 3% | 6%
CCCc1cc(C(=O)Nc2cccc(Cl)c2)no1 | 47%[activator] | . | -12% | ? | -65% | -4.3% | . | -13%
O=C(CSc1ccc2ccccc2c1)NCCCN1CCCC1=O | 19% | . | 1% | -12% | 0% | . | . | .
COCCNC(=O)Cn1cc(C=C2C(=O)NC(=O)NC2=O)c2ccccc21 | -14% | ? | -1% | 8% | 8% | . | 29% | .
O=C(NCCC1=CCCCC1)C1CCN(C(=O)Cc2ccccc2)CC1 | -4% | 6%[46.1 µM] | 0% | 8% | 2% | . | ? | .
CC(=O)Nc1nc(N)n(-c2ccccc2)n1 | 5% | 15% | . | -5% | 3% | 3.5% | -3% | -7%
O=C(NCc1ccc(F)cc1)C1CCC(CNc2c(N3CCCCC3)c(=O)c2=O)CC1 (centres undefined) | -6% | . | -2% | -16% | -4% | . | . | .
O=C(CSc1ncnc2c1nnn2Cc1ccc(F)cc1)NC1CCCCC1 | -28% | ? | -8% | 10% | . | . | -4%[46.1 µM] | .
Cc1ccc(C(=O)Nc2cc3cc(Cl)ccc3oc2=O)cc1 | 20% | . | . | . | . | 0.2% | 9%[46.1 µM] | 15%
O=C(NNC1=C(C(=O)C(F)(F)F)CCC1)c1ccccc1O | -19% | -21% | -8% | -15% | -92% | -0.6% | -10% | 6%
COc1ccccc1-c1cc(C(=O)Nc2c(C)n(C)n(-c3ccccc3)c2=O)no1 | 11% | -4% | 1% | 3% | -7% | 1.3% | 3% | -10%
O=C(N/N=C/c1ccc(O)c2ccccc12)c1cccnc1 | -7% | 16%[46.1 µM] | 2% | 83% | 5% | . | 17% | .
Cc1ccc(C)c(-n2cc[nH]c2=S)c1 | -11% | -16% | ? | -21% | 6% | 1.8% | 2% | 0%
O=Cc1cn(CC(=O)Nc2ccccc2)c2ccccc12 | -15% | . | -6% | 4% | 3% | . | . | .
CCC(CC)C(=O)Nc1ccc(S(=O)(=O)N2CCC(c3nc4ccccc4s3)CC2)cc1 | -29% | 20%[46.1 µM] | . | . | . | -3.3% | 7%[46.1 µM] | 1%
COc1ccc(CNc2nc3c(c(=O)[nH]c(=O)n3C)n2Cc2ccccc2)cc1 | -18% | . | -3% | 4% | 1% | . | . | .
O=C(Cc1ccc(Cl)cc1)Nc1ccc(C(=O)N2CCOCC2)cc1 | 2% | . | 0% | 68% | 1% | . | . | .
CC(C)(C)OC(=O)N1CCN(C(=O)c2cccnc2Cl)CC1 | 8% | 11% | 0% | -7% | -4% | . | 2% | .
O=C(Nc1ccc(S(=O)(=O)N2CCCCC2)cc1)C1CCCCC1 | -17% | 3%[46.1 µM] | 0% | 6% | -19% | . | ? | .
O=C1CC(N2CCC(n3c(=O)[nH]c4ccccc43)CC2)C(=O)N1Cc1ccccc1 (centres undefined) | -26% | 28% | -31% | -23% | -5% | 0.0% | 18% | 5%
COc1ccc(CNc2nc(SCc3ccccc3Cl)nc3ccccc23)cc1 | ? | . | . | . | . | -3.5% | 5%[46.1 µM] | 8%
Fc1ccc(Nc2ncnc3onc(-c4cccc(Cl)c4)c23)c(F)c1 | -3% | -10%[46.1 µM] | . | . | . | -1.0% | -9%[46.1 µM] | 10%
CCOC(=O)C1CCN(C(c2cc3ccc(C)cc3[nH]c2=O)c2nnnn2C2CCCCC2)CC1 (centres undefined) | -19% | ? | 9% | 13% | -47% | -2.5% | ? | 0%
